Hsc70 = Hsc70 inhibitors, probe displacement, primary screen, biochemical, fluorescence polarization (AID 568); Hsc70 fluorescence polarization, probe displacement; higher % means a stronger effect; strong numbers were not always called active; one-dose displacement, % at 20 µM; IC50 in µM for titrated hits; 83,000 tested, under 10 active;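 active = displacement above 50% without optical interference and an IC50 on retest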;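 also: ATPase domain with a fluorescein-tagged ATP probe; 0% = vehicle and 100% = excess ADP; read after one hour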
WNV NS2B-NS3 inh = inhibitors of WNV NS2B-NS3 protease, primary screen, biochemical, fluorogenic substrate | z-score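 (tested at a level between 10 and 100 µM)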 | 65,000 tested, 0.18% active | AID 577, 2007 | fluorogenic substrate Ex360/Em465; hits give low values;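 active = z-score at -3 or under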;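 also: score is relative to mean and spread of the compound wells of a plate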
Target sequence (P06935 1371-1501 limits assumed): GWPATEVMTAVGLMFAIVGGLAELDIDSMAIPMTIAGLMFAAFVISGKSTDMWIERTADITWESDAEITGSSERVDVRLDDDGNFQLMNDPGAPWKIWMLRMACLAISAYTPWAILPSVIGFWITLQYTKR
Target sequence (P06935 1502-1679 limits assumed): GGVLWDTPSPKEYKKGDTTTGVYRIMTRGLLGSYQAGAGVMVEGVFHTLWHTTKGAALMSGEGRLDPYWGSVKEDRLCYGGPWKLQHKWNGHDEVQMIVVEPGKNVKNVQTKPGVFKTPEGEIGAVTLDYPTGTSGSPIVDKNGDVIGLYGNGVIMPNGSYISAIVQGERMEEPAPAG
MT1-MMP reporter = inhibitors of MT1-MMP promoter transcription, cell-based, luciferase reporter, luminescence (AID 618). MT1-MMP promoter luciferase reporter cells, luminescence. calls from a first round at 10 µM; hits with a dose series show EC50 in µM. 87,000 tested, 0.62% active;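 active = over half of the reporter light lost at 10 µM or EC50 under 50 µM; inactive = the rest and hits that failed the dose series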;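 also: actives suppress MT1-MMP promoter-driven transcription so potencies describe inhibitors; HT1080 fibrosarcoma cells; overnight exposure; toxic or luciferase-blocking compounds were not removed from the actives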
* = called active by the depositor; i = inactive; / = no result given.

Start of the listing, in advance:
SMILES	Hsc70	WNV NS2B-NS3 inh	MT1-MMP reporter
NC(=O)c1ncn([C@@H]2O[C@H](CO)[C@@H](O)[C@H]2O)n1	-4.8%	1.1	i
Cc1cc(NC(=O)COC(=O)CCC(=O)c2ccc(F)cc2)no1	2.6%	-1	i

All compounds of this part, repeating the preview:
SMILES	Hsc70	WNV NS2B-NS3 inh	MT1-MMP reporter
NC(=O)c1ncn([C@@H]2O[C@H](CO)[C@@H](O)[C@H]2O)n1	-4.8%	1.1	i
Cc1cc(NC(=O)COC(=O)CCC(=O)c2ccc(F)cc2)no1	2.6%	-1	i
CCOC(=O)c1cc(-c2ccncc2)nc2c1c(C)nn2-c1ccccn1	-5.6%	-0.49	i
CCCCCn1c(N2CCN(c3cccc(Cl)c3)CC2)nc2c1c(=O)[nH]c(=O)n2C	2.2%	-0.24	i
COc1ccc2nc(NCCCNC(=O)c3cc(OC)c(OC)c(OC)c3)c(C#N)cc2c1	36.0%	0.74	i
CCCc1cc(C(=O)Nc2nccs2)cs1	-2.0%	-0.98	12.7µM*
CCOC(=O)c1cccc(NC(=O)Nc2cc(OC)ccc2OC)c1	3.5%	0.25	i
Cc1ccc(S(=O)(=O)C2(S(=O)(=O)c3ccc(C)cc3)CCCC2)cc1	3.6%	0.33	i
CCOC(=O)CSc1nc2sc3c(c2c(=O)[nH]1)CCCC3	-2.6%	-0.55	i
Cc1sc2ncnc(SCC(=O)NC(=O)NCc3ccco3)c2c1C	-10.5%	-0.45	i
O=C(O)CC(=O)Nc1ccccc1	2.7%	/	i
COC(=O)C1=NN(c2ccc(C)cc2)C2(S1)SC(C(C)=O)=C(C)N2c1ccccc1 (stereo not given)	1.3%	/	i
CS(=O)(=O)NCc1ccc(C(=O)NCCOc2ccccc2)cc1	1.7%	0.75	i
CCn1c(COc2ccc(C)cc2)nnc1SCC(=O)Nc1cc(OC)ccc1OC	2.2%	-0.02	i
O=C(/C=C\Nc1ccccn1)c1ccccc1	3.1%	-1.3	2.01µM*
COc1ccc(C(=O)Nn2cnnc2)c(OC)c1	2.6%	/	i
Cn1nccc1C(=O)Nn1cnnc1	0.8%	-0.42	i
COc1ccc(C2=NOC(C(=O)NC(C)(C)C)C2)cc1 (stereo not given)	-4.4%	0.3	i
CCn1c(SCC(=O)Nc2ccc(OCc3ccccc3)cc2)nnc1-c1ccco1	1.8%	0.88	i
Cc1cc(NC(=O)CSc2ccc3nnc(-c4ccccc4)n3n2)no1	3.9%	0.27	i
O=C(O)c1cnn2c1NC(c1ccc(F)cc1)CC2C(F)(F)F (stereo not given)	3.0%	-0.23	i
CCN1CCN(C(=O)CCc2nc3ccccc3c(=O)[nH]2)CC1	4.4%	/	i
Cc1cc(NC(=O)CSc2nnc(-c3ccco3)n2Cc2ccccc2)no1	6.8%	/	i
CC(C)NC(=O)NS(=O)(=O)c1cnccc1NC1CC2CCC1C2 (stereo not given)	5.5%	/	i
COC(=O)c1cc(OC)c(OC)cc1NC(=S)N1CCCCC1	-0.7%	/	i
CCC1CCCCN1C(=O)COc1cc(=O)n(C)c2ccccc12 (stereo not given)	2.9%	-0.46	i
COC(=O)CSc1nnc(SCc2ccc(Cl)cc2)s1	-2.2%	/	i
COc1cc(C(=O)NC2CC3CCCC(C2)N3CC(=O)Nc2ccccc2)cc(OC)c1OC (stereo not given)	-2.7%	0.62	i
Cc1cc(NC(=O)COC(=O)CCCOc2ccc(Cl)cc2C)no1	-0.4%	-0.36	i
O=C(O)c1ccc(CSCc2ccccc2F)o1	-4.6%	0.08	i
O=C(NCCc1c[nH]c2ccccc12)c1cc(S(=O)(=O)N2CCCCC2)ccc1N1CCOCC1	-2.9%	1.21	i
CC(=O)NC1C(c2nc3ccccc3s2)=C(c2ccccc2)C(=O)N1c1ccc(C)cc1 (stereo not given)	-5.3%	/	i
Cc1ccc(S(=O)(=O)NCCCCCC(=O)N(C)C)cc1	-3.0%	-0.89	i
CCCCn1nnnc1SCC(=O)N1CCCC1	-0.8%	/	i
O=C(c1nc2ncccn2n1)N1CCc2ccccc2C1	7.7%	-1.18	i
CSc1nc(SCC(=O)NCc2ccco2)c2c3c(sc2n1)CN(C)CC3	4.1%	-0.35	i
CCCN(CCC)C(=O)CCS(=O)(=O)c1cccc2nsnc12	-2.2%	0.25	i
NC(=O)NC(=O)CSc1nc(-c2ccccc2)c(-c2ccccc2)n1CC1CCCO1 (stereo not given)	-0.2%	/	i
CCOC(=O)N1CCC(NC(=O)c2cc(C(=O)Nc3cccc(OC)c3)ccc2CO)CC1	-5.6%	0.29	i
C1=C(N2CCOCC2)/C(=C/c2nc3ccccc3[nH]2)CC1	37.4%	-0.77	i
Brc1ccccc1-c1nnc(CSc2nnnn2-c2ccccc2)o1	7.2%	-0.69	i
CCCCCCNC(=O)CSc1nccn1Cc1ccccc1	1.6%	/	i
CCNC(=O)CCc1nc(-c2ccc(C(C)(C)C)cc2)no1	3.1%	-0.19	i
CCOC(=O)c1sc(NC(=O)c2ccc(C)o2)nc1C	-1.0%	0.48	i
CC(=O)Nc1ccc(N/C=C/C(=O)C(C)(C)C)cc1	0.5%	-0.01	i

13 compounds out of the list, sorted by formula weight, ascending:
SMILES	Hsc70	WNV NS2B-NS3 inh	MT1-MMP reporter
CC(=O)Nc1ccc(N/C=C/C(=O)C(C)(C)C)cc1	0.5%	-0.01	i
O=C(O)c1ccc(CSCc2ccccc2F)o1	-4.6%	0.08	i
CCCCn1nnnc1SCC(=O)N1CCCC1	-0.8%	/	i
O=C(c1nc2ncccn2n1)N1CCc2ccccc2C1	7.7%	-1.18	i
C1=C(N2CCOCC2)/C(=C/c2nc3ccccc3[nH]2)CC1	37.4%	-0.77	i
Cc1ccc(S(=O)(=O)NCCCCCC(=O)N(C)C)cc1	-3.0%	-0.89	i
CCCCCCNC(=O)CSc1nccn1Cc1ccccc1	1.6%	/	i
CCCN(CCC)C(=O)CCS(=O)(=O)c1cccc2nsnc12	-2.2%	0.25	i
Brc1ccccc1-c1nnc(CSc2nnnn2-c2ccccc2)o1	7.2%	-0.69	i
CSc1nc(SCC(=O)NCc2ccco2)c2c3c(sc2n1)CN(C)CC3	4.1%	-0.35	i
NC(=O)NC(=O)CSc1nc(-c2ccccc2)c(-c2ccccc2)n1CC1CCCO1 (stereo not given)	-0.2%	/	i
CC(=O)NC1C(c2nc3ccccc3s2)=C(c2ccccc2)C(=O)N1c1ccc(C)cc1 (stereo not given)	-5.3%	/	i
CCOC(=O)N1CCC(NC(=O)c2cc(C(=O)Nc3cccc(OC)c3)ccc2CO)CC1	-5.6%	0.29	i

(continued)
SMILES	Hsc70	WNV NS2B-NS3 inh	MT1-MMP reporter
Cc1nc(NCc2ccc3c(c2)OCO3)c2oc3ccccc3c2n1	6.6%	-0.82	i
Cc1ccc(NC(=O)CCNS(=O)(=O)c2ccc3c(c2)oc(=O)n3C)cc1	-3.1%	0.65	i
Cc1cc(C)nc(NC(=O)CSc2nn(C)c(=S)s2)n1	-1.9%	1.17	i
CCOC(=O)N1CCN(C(=O)CN(c2cc(C(F)(F)F)ccc2Cl)S(C)(=O)=O)CC1	7.4%	0.53	i
O=C(NCCC1=CCCCC1)C1COc2ccccc2O1 (stereo not given)	-1.0%	0.29	i
Cc1ccc(C)c2[nH]c(=O)c(CN(Cc3ccco3)C(=O)Nc3ccccc3)cc12	-2.9%	0.53	i
COc1ccc(S(=O)(=O)N(C)CC(=O)NCCC2=CCCCC2)cc1	-2.8%	-0.28	i
c1ccc(-c2csc3ncnc(NCCN4CCOCC4)c23)cc1	6.0%	0.43	i
Cc1nn(C)cc1C(N)=O	3.4%	-0.57	i
Cc1cc(C)n(-c2nc3ccccc3c(=O)n2OCC(=O)OCc2ccccc2)n1	-7.9%	0.04	i
O=C(Nc1ccc2c(c1)OCO2)c1cccc2c1C(=O)N(C1CCCCC1)C2	6.6%	0.12	i
O=C(Cn1nc(-c2ccccc2)c2ccccc2c1=O)Nc1ccc2c(c1)nc1n2CCOC1	-5.5%	-1.09	i
CC1CCN(CCCNC(=O)c2cn(C)c3ccc(S(=O)(=O)N4CCCC4)cc3c2=O)CC1	-3.7%	0.12	i
CCOC(=O)N1CCN(Cc2cccs2)CC1	0.9%	-0.87	i
CCN(c1c(C)n(C)n(-c2ccccc2)c1=O)S(C)(=O)=O	-2.8%	-0.48	i
CCOc1cccc(C(=O)Nc2ccc(N(CC)CC)cc2)c1	-1.7%	0.52	i
COc1ccc(O)c(-c2cc(-c3cccc(Br)c3)n[nH]2)c1	4.2%	-1.1	i
CCOC(=O)c1cccc(NC(=O)C2CCN(S(=O)(=O)c3cccs3)CC2)c1	-1.9%	-0.29	i
COc1ccc(-c2nnc(SC(C)C(=O)Nc3c(C)n(C)n(-c4ccccc4)c3=O)o2)cc1 (stereo not given)	-0.2%	/	i
CCC(=O)c1ccccc1OCCN1C(=O)NC(C)(C)C1=O	-4.0%	-0.41	i
CC(NC(=O)CC12CC3CC(CC(C3)C1)C2)C(=O)O (stereo not given)	4.1%	0.22	i
C=CCOCC(O)CS(=O)(=O)Cc1ccc(Cl)cc1 (stereo not given)	-1.2%	/	i
CCOC(=O)NC(=O)CSc1nc(C)cc(C)c1C#N	3.8%	1.01	i
CSc1nc2c(c(=O)n1C)SC(C)C2 (stereo not given)	-0.3%	-0.51	i
CC(C)(C)NC(=O)COc1ccc(CNn2nnnc2N)cc1	6.1%	-0.34	i
CC(C(=O)Nc1nccs1)N1C(=O)C2CC=CCC2C1=O (stereo not given)	7.5%	0.67	i
CCCCn1c(=O)c2c(c3ccccc31)OCC(=O)N2	1.9%	-0.75	i
Cc1cc(C)c2c(n1)sc1c(N3CCOCC3)ncnc12	3.3%	-0.37	i
COc1ccccc1N(C(=O)c1ccco1)C(C(=O)NC1CCCC1)c1cccnc1 (stereo not given)	7.4%	-0.13	i
Cc1ccccc1CS(=O)(=O)c1nnc([C@H](CC(C)C)NC(=O)OC(C)(C)C)o1	0.6%	0.33	i
O=C(c1cccc(C(=O)N2CCN(c3ccccc3F)CC2)n1)N1CCN(c2ccccc2F)CC1	-4.6%	-1.77	i
CCOc1ccc2nc(SCC(=O)N3CCN(C(=O)c4ccco4)CC3)sc2c1	7.5%	/	i
O=C1CCC(C(=O)Nc2ccccc2)N1 (stereo not given)	0.7%	/	i
Cc1c(Cl)cccc1NC(=S)NN1CCOCC1	-1.2%	/	i
CCOC(=O)C1=C(C)NC2=C(C(=O)CC(C)(C)C2)C1c1coc2ccccc2c1=O (stereo not given)	-3.7%	/	i
CC(=O)N1CCN(c2ccc(Oc3nnnn3-c3ccccc3)cc2)CC1	1.9%	1.22	i
CCC(=O)Nc1ccc2c(c1)ncn2-c1ccccc1OC	4.8%	-0.81	i
O=C(NCc1ccc(F)cc1Cl)C1CCN(S(=O)(=O)N2CCC3(CC2)OCCO3)CC1	-4.0%	2.17	i
O=C(Nc1ccc(-c2nnc(-c3ccccc3)o2)cc1)C(F)(F)F	-4.1%	0.29	i
O=C1CN(CC(=O)N2CCOCC2)c2ccccc2O1	-2.0%	5.01	i
O=C(CSc1nc2ccccc2o1)N1CCN(C(=O)c2ccco2)CC1	0.9%	-0.38	i
Cn1c(C(=O)NCC2CCCO2)cc2oc3ccccc3c21 (stereo not given)	-8.0%	2.08	i
CCOC(=O)c1cnn(-c2cc(C)c3cc(C)cc(C)c3n2)c1N	-1.9%	1.22	i
CCCc1ccc(-c2ccc(C(=O)O)cc2)nc1	-0.3%	-0.47	i
COc1ccc(-n2c(SCC(=O)c3c(N)n(C)c(=O)n(C)c3=O)nc3ccccc32)cc1	0.9%	0.23	i
O=C(OCCN=C1NS(=O)(=O)c2ccccc21)C1CC(=O)N(c2ccc3ccccc3c2)C1 (stereo not given)	-7.4%	/	i
Cc1onc(-c2ccccc2)c1C(=O)Nc1nc2c(s1)CCCC2	0.4%	0.31	i
CC(C)C(C)(C#N)NC(=O)CSc1nnc(C(F)(F)F)n1C (stereo not given)	0.5%	/	i
Cc1csc(NC(=O)CSc2nnc3ncccn23)n1	1.9%	-1.59	i
Cc1cc(C)c(C#N)c(SCC(=O)c2cc(C)n(CCc3ccccc3)c2C)n1	1.7%	/	i
O=C(NCc1ccco1)C1CCN(C(=O)c2cc3sccc3n2Cc2ccc(Cl)cc2)CC1	-4.2%	0.03	i
CCCCOC(=O)Nc1nnc(CCc2ccccc2)s1	0.7%	/	i
CCOC(=O)Cc1nnc(NC(=O)c2cccc(OCC)c2)s1	7.4%	1.2	i
CC(=O)N1CCN(C(C)=O)C1c1ccccc1	6.2%	-0.48	i
O=C(NCC1CCCO1)C1CCCN(Cc2cnn(-c3ccccc3)c2-n2cccc2)C1 (stereo not given)	-0.2%	-0.000522	i
CNC(=O)CSc1nc2c(c(=O)n(C)c(=O)n2C)n1Cc1ccc(C)cc1	7.9%	1.32	i
Cc1cccc(C)c1OCc1nnc(SCC(=O)Nc2nccs2)n1-c1ccccc1	6.1%	-1.24	i
CC(NC(=O)Cn1c(NCCO)nc2ccccc21)c1ccccc1 (stereo not given)	-5.3%	/	i
COc1ccnc(N=CNOCc2cccc(Cl)c2Cl)c1C#N	-2.2%	/	i
COc1ccc(N(CC(=O)N2CCC(C)CC2)S(=O)(=O)c2c(C)nn(C)c2C)cc1	3.3%	-1.06	i
Other compounds follow.
SMILES	Hsc70	WNV NS2B-NS3 inh	MT1-MMP reporter
O=C(Nc1ccc(S(=O)(=O)N2CCCC2)cc1Cl)C1=COCCO1	2.2%	0.89	i
O=C(NC1(C(F)(F)F)NC(=O)N(Cc2cccnc2)C1=O)c1ccc(F)cc1 (stereo not given)	-2.4%	/	i
CCCn1c(=NC(C)=O)c(C#N)cc2c(=O)n3cccc(C)c3nc21	2.7%	1.63	i
COC(=O)c1ccc(COC(=O)c2ccc(N(C)C)cc2)cc1	2.6%	1.06	i
